High-throughput results as filed in PubChem BioAssay.
Arbovirus anti: antivirals against arbovirus infection, primary screen, cell-based, full library, 10K replicate subset; 200,000 compounds, 0.37% hits; arbovirus infection cell-based antiviral screen; inhibition, % at 10 µM;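 active = inhibition from about 30%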;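 also: bluetongue infection of BSR cells; cell survival read as ATP light after 72 h; 0% = infected wells without compound and 100% = uninfected wells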
Mtb betalactam: beta-lactam sensitization of Mtb H37Rv, H37Rv; M. tuberculosis H37Rv growth with meropenem, percent inhibition; hits of this screen are not shown here; 330,000 compounds, 0.27% hits; inhibition, % at 25 µM; AID 434955, 2010;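 active = about 74% or more and at least 40 points above the plate without the antibiotic, then above 30% in a dose series; inconclusive = first-round hits that could not be retested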;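 also: growth measured after seven days incubation then overnight dye step; 0% = bacteria only wells and 100% = bacteria with antibiotic; twin plates without the antibiotic show which effects depend on it; some results filed as inactive read as strong as hits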
YopH inh: YopH tyrosine phosphatase inhibitors, primary screen, biochemical, fluorescence Ex485/Em525; YopH tyrosine phosphatase [Yersinia enterocolitica]; AID 898, 2007; inhibition, %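 (about 10 µM by stock and volumes)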; 140,000 compounds, 0.16% hits;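 active = inhibition of 50% or more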;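 also: controls were vehicle for no effect and minimum signal wells for full effect; inactives centre near -20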
RecA splice inh: Mtb RecA intein splicing inhibitors, primary screen, biochemical, fluorescence, HTS; inhibition, %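 (about 9 µM by stock and volumes)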; AID 2221, 2009; 290,000 compounds, 0.75% hits; cell-free RecA intein splicing; in the data active = inhibition above about 30%; inconclusive = no clear call, values can overlap the other calls;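 also: 0% = vehicle wells and 100% = reference inhibitor control wells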
Target sequence (P9WHJ3 whole entry, looked up, canonical isoform): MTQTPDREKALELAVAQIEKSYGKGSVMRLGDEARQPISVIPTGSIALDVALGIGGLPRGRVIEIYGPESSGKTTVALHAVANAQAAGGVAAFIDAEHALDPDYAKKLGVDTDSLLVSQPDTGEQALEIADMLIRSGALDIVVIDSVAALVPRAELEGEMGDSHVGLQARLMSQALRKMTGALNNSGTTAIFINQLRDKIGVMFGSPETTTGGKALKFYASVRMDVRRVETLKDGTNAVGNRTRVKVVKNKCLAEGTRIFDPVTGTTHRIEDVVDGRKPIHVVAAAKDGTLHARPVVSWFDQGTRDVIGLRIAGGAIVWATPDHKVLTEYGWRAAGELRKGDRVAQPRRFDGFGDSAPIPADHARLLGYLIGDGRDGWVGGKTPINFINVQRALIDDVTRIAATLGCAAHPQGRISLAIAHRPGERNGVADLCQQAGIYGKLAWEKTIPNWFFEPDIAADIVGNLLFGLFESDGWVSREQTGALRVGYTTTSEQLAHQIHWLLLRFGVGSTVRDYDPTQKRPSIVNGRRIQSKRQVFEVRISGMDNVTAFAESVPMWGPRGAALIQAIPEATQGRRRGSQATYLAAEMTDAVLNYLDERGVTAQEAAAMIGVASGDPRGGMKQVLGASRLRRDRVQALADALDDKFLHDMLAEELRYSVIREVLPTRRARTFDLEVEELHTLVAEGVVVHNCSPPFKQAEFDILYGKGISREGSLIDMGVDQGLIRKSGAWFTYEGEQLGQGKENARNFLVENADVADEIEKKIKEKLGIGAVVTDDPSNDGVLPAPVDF
Mtb H37Rv: M. tuberculosis H37Rv growth inhibitors, H37Rv strain (AID 1626); M. tuberculosis H37Rv growth inhibition; higher % means a stronger effect; one-dose inhibition, % at 10 µM; IC50 in µM for titrated hits; 220,000 compounds, 0.95% hits;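 active = confirmed in a dose series; inconclusive = inhibition above 80% but not taken into the dose series; inactive = below 80% or under 30% at every dose of the series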;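 also: bacteria incubated seven days before Alamar blue readout; 0% = bacteria only wells and 100% = bacteria with antibiotic wells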
Arbovirus anti repeat: further read-out of Arbovirus anti, marked with its call; inhibition, %; measured here: 10K subset replicate screen; many hits read low in the repeat;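 first of two repeat runs on a subset; 0% = infected and 100% = uninfected wells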
Active calls of the source: *; ? = inconclusive; . = not tested or not shown.

SMILES	Arbovirus anti	Mtb betalactam	YopH inh	RecA splice inh	Mtb H37Rv	others
C=CCNC(=O)NC(=O)Cn1c(=O)c2c(ncn2CC)n(Cc2ccccc2)c1=O	.	1	.	0.5	.
CN1/C(=C\C(=O)C[n+]2cccc(C(N)=O)c2)C(C)(C)c2ccccc21	19	-3	.	-1.4	2%
CCOC(=O)N1CCN(C(=O)CSc2nnc(CNC(=O)c3ccccc3F)o2)CC1	7	-2	-6	0.4	1%
CN(C)c1nc(N2CCN(c3ccc(F)cc3)CC2)c(C#N)c(=O)o1	12	.	1	-0.9	.
Cc1csc(SC(C)C(=O)Nc2ccc3c(c2)OCCO3)n1 (stereo not drawn)	0	-2	.	0.6	-6%
COC(=O)[C@H]1C[C@@H]1[C@H](N)c1ccccc1	.	0	.	-0.1	.
CN(CCCNC(=O)COc1cc(=O)n(C)c2ccccc12)Cc1ccccc1	-8	6	-33	-3.3	14%
COc1ccc(-n2c3c(cc(C(=O)NNc4ccccc4)c2=O)C(=O)CC(C)(C)C3)cc1	-31	-6	.	-2.2	?
COc1ccc2nc(SCC(N)=O)cc(C)c2c1	3	5	-14	3.8	-6%
CCCNS(=O)(=O)c1ccc(-n2cnnn2)c(OC)c1	4	-13	.	-0.9	-7%
COc1cccc(C2CC(c3cccc(NS(C)(=O)=O)c3)=NN2C(=O)c2ccccc2)c1OC (stereo not drawn)	-15	2	29	2.9	13%
CCCCC1CCC(C(=O)NC2CCS(=O)(=O)C2)CC1 (stereo not drawn)	0	-11	-28	0.6	-14%
Cc1cc2c(=O)n(Cc3ccco3)c(SCC(=O)N3CCCc4ccccc43)nc2s1	-2	14	23	11	5%
Cc1ccc(-c2ccc(C(=O)NCc3ccccc3)o2)c2ccccc12	0	7	-10	3.0	-8%
CCC(C(=O)NCc1cccc(C)c1)n1nc(C)c2c(C)n(-c3ccccc3)nc2c1=O (stereo not drawn)	.	-2	.	3.0	.
CC(C)CCN1CCN(Cc2nc3c(s2)CCCC3)CC1CCO (stereo not drawn)	-8	-3	.	0.4	5%
O=C(Nc1cccc(F)c1)N1CC=C(n2c(=O)[nH]c3ccccc32)CC1	-4	-9	8	1.2	-1%
COc1ccc(OC)c(CNC(=O)C2CCN(S(C)(=O)=O)CC2)c1	-2	-3	.	.	0%
Cc1ncsc1CCOC(=O)C1C2CC3CC(C2)CC1C3 (stereo not drawn)	1	6	-21	6.8	7%
O=C(O)CCCC(=O)Nc1ccc(C(=O)N2CCCCC2)c(Cl)c1	8	-1	-24	0.9	1%
Cc1cccc(C(=O)c2ccccc2C(=O)O)c1O	5	-1	-46	2.5	-2%
O=[N+]([O-])c1cc([N+](=O)[O-])c(Oc2cncc(Cl)c2)cc1NC1CCCCCCC1	.	-4	.	0.3	.
O=C(Cn1c(=O)oc2cc(S(=O)(=O)N3CCCCCC3)ccc21)NC1CCCCC1	-1	-1	-35	-4.4	-2%	Arbovirus anti repeat=-13
COc1ccc(-c2cc(COc3ccccc3)on2)cc1	-6	8	.	3.9	11%
Cc1cc(=O)oc2cc(OCC(=O)NCc3ccncc3)ccc12	3	-19	-137	-0.6	-7%

Brought forward from above: 4 entries, followed by the next part.
SMILES	Arbovirus anti	Mtb betalactam	YopH inh	RecA splice inh	Mtb H37Rv	others
O=[N+]([O-])c1cc([N+](=O)[O-])c(Oc2cncc(Cl)c2)cc1NC1CCCCCCC1	.	-4	.	0.3	.
O=C(Cn1c(=O)oc2cc(S(=O)(=O)N3CCCCCC3)ccc21)NC1CCCCC1	-1	-1	-35	-4.4	-2%	Arbovirus anti repeat=-13
COc1ccc(-c2cc(COc3ccccc3)on2)cc1	-6	8	.	3.9	11%
Cc1cc(=O)oc2cc(OCC(=O)NCc3ccncc3)ccc12	3	-19	-137	-0.6	-7%
COc1ccc(C(=O)NCCc2c[nH]c3ccccc23)cc1[N+](=O)[O-]	.	0	.	-0.9	.
COc1cc(NC(=S)N2CCC(C(N)=O)CC2)cc(OC)c1	-6	-2	-4	-4.2	0%
Cc1ccc2cc(C)c(SCC(=O)Nc3ccc(S(=O)(=O)N4CCCC4)cc3)nc2c1	.	-2	.	4.5	-1%
O=C(NC1CCN(S(=O)(=O)c2ccccc2)CC1)C1CCCCC1	-28	0	-9	3.2	-2%
O=C(NCC(=O)N1CCN(S(=O)(=O)c2ccccc2)CC1)c1ccc(Br)o1	.	-11	.	0.8	.
CC(C)(C)CC(=O)Nc1cc(S(=O)(=O)N2CCCCCC2)ccc1Cl	2	-5	-23	3.2	5%
Nc1ccc(Cl)cc1C(=O)c1ccccc1	-6	8	.	4.3	-1%
C#CC1(NC(=O)NC(=O)c2c(F)cccc2F)CCCCC1	.	-2	.	-6.4	-9%
C/C(=N\NC(=O)c1ccncc1)c1cccnc1	.	99	.	-1.5	.
COC(=O)CN(c1cc([N+](=O)[O-])ccc1OC)S(C)(=O)=O	-1	-7	.	-0.6	4%
S=c1[nH]nc(COc2cccc3ccccc23)n1Cc1ccccc1	.	38	.	-1.5	-2%
CSc1ccc(/C=C(\NC(=O)c2ccccc2)C(=O)NN)cc1	.	-2	.	.	15%
Cc1cc(C)n2nc(SCC(=O)c3cccs3)nc2n1	0	0	.	-0.2	5%
CCN(Cc1ccc(NC(C)=O)cc1)CC1CCCN(CCc2cccc(F)c2)C1 (stereo not drawn)	.	-8	.	3.5	.
Cc1cc(C)cc(NC(=O)N2CCNC(=O)C2CC(=O)Nc2cc(Cl)ccc2Cl)c1 (stereo not drawn)	.	12	.	0.0	.
CCc1nnc(NC(=O)CN2CCN(c3ccccc3OC)CC2)s1	0	-1	-41	0.4	-5%
Cc1n[nH]c(C)c1S(=O)(=O)N(CC(=O)NC1CCCC1)c1ccc(C(C)C)cc1	-3	0	-34	1.1	0%	Arbovirus anti repeat=1
CCCCNC(=O)NS(=O)(=O)c1ccc(NC(=O)CCC(=O)c2cccs2)cc1	.	11	.	-1.7	.
COc1cccc(CN(C)CC(=O)NCc2ccccc2Cl)c1	5	-2	-27	1.1	-7%
CN1CCOCCOc2ccccc2OCCOCC1	.	-14	.	0.7	.
CCCn1c2ccc(C)cc2c2n[nH]c(=S)nc21	.	-2	.	0.9	.
COc1ccc(-n2cnc3cc(NS(=O)(=O)c4ccc(C)cc4)ccc32)cc1	-15	31	-18	.	3%
CCOc1ccc(S(=O)(=O)Nc2ccc(C(=O)N3CCC3)cc2)cc1	.	-4	.	-2.3	.
CCOc1ccc(NC(=O)CC2NCCNC2=O)cc1 (stereo not drawn)	0	-3	-23	0.6	-6%
Cc1cc(/C=N/NC(=O)Cn2c3ccccc3c(=O)c3ccccc32)c(C)n1-c1ccccc1	-10	-1	-11	-77	.

Part of the list above in order of molecular weight, highest first:
SMILES	Arbovirus anti	Mtb betalactam	YopH inh	RecA splice inh	Mtb H37Rv	others
Cc1cc(/C=N/NC(=O)Cn2c3ccccc3c(=O)c3ccccc32)c(C)n1-c1ccccc1	-10	-1	-11	-77	.
COc1cccc(CN(C)CC(=O)NCc2ccccc2Cl)c1	5	-2	-27	1.1	-7%
CCOc1ccc(NC(=O)CC2NCCNC2=O)cc1 (stereo not drawn)	0	-3	-23	0.6	-6%

Further results
SMILES	Arbovirus anti	Mtb betalactam	YopH inh	RecA splice inh	Mtb H37Rv	others
CCCC(=O)Oc1ccc(C2NC(=O)c3ccccc3O2)cc1OC (stereo not drawn)	.	3	.	-0.1	.
CCSC1=NCCN1C(=O)c1ccc(S(=O)(=O)N(CC)CC)cc1	5	6	.	3.5	5%
O=C(CSc1ccccc1)N1CCc2ccccc21	-1	15	-5	1.1	7%
CCn1c(SCc2cccc(F)c2)nc2c(c1=O)SCC2	11	15	.	17	3%
CCOc1ccc(-n2c(SCC(=O)Nc3ccc(C(=O)O)cc3)nc3ccccc3c2=O)cc1	.	-3	.	-1.0	.
COCCNC(=O)C(C(=O)c1ccc(F)cc1)n1cc(C)ccc1=O (stereo not drawn)	-2	3	.	1.0	3%
CC(=O)Nc1ccn(Cc2c(F)cccc2Cl)n1	-8	-12	-35	-2.0	-3%
COc1ccc2oc(=O)c(N3C(=O)c4ccccc4C3=O)cc2c1	.	-4	.	-3.5	-3%
Cc1c(C(=O)NC2CCOC2)oc2c(F)cccc12 (stereo not drawn)	.	-6	.	0.7	.
CCN(CC(=O)Nc1c(F)cccc1F)C(=O)CNC(=O)c1cccs1	.	-9	.	-5.7	.
COc1ccc2c(CC(=O)N(C)CC3COc4ccccc4O3)coc2c1 (stereo not drawn)	1	-11	1	-1.2	7%
O=C(Cn1cc(C(=O)c2ccco2)c2ccccc21)NC1CC1	-3	-3	.	-2.4	0%
C=CCc1cccc(CNc2nc3ccccc3n2CCN2CCOCC2)c1O	2	-9	-9	1.0	8%
COc1cccc(Cn2nc(C(=O)O)c3ccccc3c2=O)c1	5	-5	.	0.6	9%
Cc1c(C(=O)N2CCCC2)sc(NC(=O)c2ccccc2)c1C#N	11	4	-42	0.8	-13%
Cc1ccc([N+](=O)[O-])cc1N/C=C1\CCc2ccccc2C1=O	-12	5	-36	4.6	-2%
CCC(=O)N1N=C(c2cccc(NS(C)(=O)=O)c2)CC1c1cccs1 (stereo not drawn)	7	-1	-29	-0.4	2%
N#CC(C#N)=CNc1cccnc1	.	-8	.	.	-15%
Cn1c(SCc2cccc(F)c2)nnc1-c1ccccn1	-2	2	-46	1.0	2%
Brc1ccc(-c2nnc(Cc3ccccc3)o2)cc1	.	-2	.	-5.0	19%
O=C(O)c1cc(-c2ccncc2)nc2ccc(S(=O)(=O)N3CCOCC3)cc12	2	-1	-18	-1.4	-3%
Cc1ccc(NC(=O)c2sccc2-n2cccc2)c(C)c1	12	98	-8	5.7	3%
C=CCn1sc(=N)c(C#N)c1N	0	0	-27	1.3	-1%
CC(C)(C)c1ccc(C(=O)N2CCC(NC(=O)c3ccccc3)CC2)cc1	.	39	.	0.4	.
C=CCn1c(SCC(=O)Nc2ccc(N3CCOCC3)cc2)nnc1-c1ccco1	.	11	.	1.7	.
O=C(CN1CCN(S(=O)(=O)N2CCCCCC2)CC1)Nc1ccc(F)cc1	.	-2	.	3.2	.
CCCCOC(=O)c1c(C)oc2ccc(NS(=O)(=O)c3ccc4c5c(cccc35)C(=O)N4)cc12	-11	99	-32	-0.3	18%

Random excerpt: four compounds from above.
SMILES	Arbovirus anti	Mtb betalactam	YopH inh	RecA splice inh	Mtb H37Rv	others
COCCNC(=O)C(C(=O)c1ccc(F)cc1)n1cc(C)ccc1=O (stereo not drawn)	-2	3	.	1.0	3%
CCCC(=O)Oc1ccc(C2NC(=O)c3ccccc3O2)cc1OC (stereo not drawn)	.	3	.	-0.1	.
N#CC(C#N)=CNc1cccnc1	.	-8	.	.	-15%
COc1ccc2c(CC(=O)N(C)CC3COc4ccccc4O3)coc2c1 (stereo not drawn)	1	-11	1	-1.2	7%

These rows are one share of the data. The share of hits here may be higher or lower than overall.
